NPYLR7 agonist – mosquito NPYLR7 agonism | HEK293T NPYLR7/Galpha15, GCaMP6s calcium fluorescence | activation, % at 10 µM | actives 0.15% (n = 270,000); in the data active means activation above about 40%;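 further: 0% = vehicle and 100% = reference agonist at the receptor; some compounds past the cut are filed as inactive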
NPYLR7 agonist max-min – recorded beside NPYLR7 agonist, whose call it bears; activation, %; measured here: Max-Min RFU normalised activation; some inactives read as strong as hits;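 span of the calcium signal over five minutes; 0% = vehicle and 100% = native peptide agonist; compound fluorescence can raise it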
Starred values were filed as active, the others as inactive; & = joins results of further samples.

Below each SMILES: NPYLR7 agonist max-min	NPYLR7 agonist
- O=C(c1ccn[nH]1)N1N=C(C(F)F)CC1(O)C(F)F (stereo unspecified)
 : 23	-1
- CCOC(=O)CSCCOc1ccc(C=C2C(=O)N(C)C(=O)N(C)C2=O)cc1OC
 : -7	-4
- CN(Cc1nnc(C(C)(C)C)o1)C1CCCC1
 : -9	-4
- CC(CNC(=O)Nc1ccc(S(C)(=O)=O)nc1)N1CCCC1 (stereo unspecified)
 : 4	6
- O=c1c(-c2ccc(Oc3ccccc3)cc2)[n+]([O-])c2ccccc2n1OCc1ccccc1F
 : -7	-5
- CC(=O)Oc1ccc(/C=C2N=C(/C=C/c3ccc(C)cc3)OC\2=O)cc1
 : -7	-4
- COc1ccc(-c2csc(=Nc3cc(OC)cc(OC)c3)n2Cc2ccccn2)cc1
 : -14	-9
- O=C(O)c1ccc(S(=O)(=O)c2ccccc2)s1
 : -14	-11
- Cc1[nH]c(-c2ccccc2)nc1C(=O)NC1CCCN(CCc2ccccc2)C1 (stereo unspecified)
 : 7	8
- COc1cccc(Cc2nc3c(c(N4CCOCC4)n2)CN(C(=O)Nc2ccc(OC)cc2OC)CC3)c1
 : 5	3

By substructure, those above with an aryl methoxy group (3)
Below each SMILES: NPYLR7 agonist max-min	NPYLR7 agonist
- CCOC(=O)CSCCOc1ccc(C=C2C(=O)N(C)C(=O)N(C)C2=O)cc1OC
 : -7	-4
- COc1ccc(-c2csc(=Nc3cc(OC)cc(OC)c3)n2Cc2ccccn2)cc1
 : -14	-9
- COc1cccc(Cc2nc3c(c(N4CCOCC4)n2)CN(C(=O)Nc2ccc(OC)cc2OC)CC3)c1
 : 5	3

Next records follow:
Below each SMILES: NPYLR7 agonist max-min	NPYLR7 agonist
- O=C(c1ccc(C(F)(F)F)cc1)N1CCCC(N2CCN(c3ccc(F)cc3)CC2)C1 (stereo unspecified)
 : -5	-4
- CN(Cc1ccc(-c2nc(-c3cccnc3)cc(=O)[nH]2)cc1)CC1COCCO1 (stereo unspecified)
 : 8	0
- COc1cc(C(=O)N/N=C\c2ccc(N3CCC(c4ccc(C)cc4)=N3)cc2)cc(OC)c1OC
 : -6	-7
- Clc1cccc2c1CCC2Nc1ncnc2nc[nH]c12 (stereo unspecified)
 : 1	2
- Cc1cc(C)c(Nc2ccc(Nc3ccc([N+](=O)[O-])cc3)c3c2C(=O)c2ccccc2C3=O)c(C)c1
 : -12	-6
- CCOCCNC(=O)CSc1nc2cc(C(=O)OCC)ccc2n1Cc1ccc(C(F)(F)F)cc1
 : -3	1
- Cc1cccc2nc(C(=O)N3CCC4(CCCO4)CC3)c(F)n12
 : 0	0
- CNC(=O)CSc1nnc2n1CCN2c1ccc(OC)cc1
 : 6	9
- C=CCN(CC(=O)N(CCc1ccc(OC)c(OC)c1)Cc1ccc(C)s1)S(=O)(=O)c1cccc2cccnc12
 : 13	10
- O=C(NCCC1CC2CCC1C2)NCc1ccc(-c2ccn[nH]2)cc1 (stereo unspecified)
 : 6	0
- O=C1CCCCC1Sc1nc2cc(Cl)ccc2c(=O)n1C1CCCCC1 (stereo unspecified)
 : 6	4
- C=C(C)Cn1c(C)c(C)n2c3c(=O)n(C)c(=O)n(C)c3nc12
 : 5	7
- O=S(=O)(Nc1cc(Cl)ccc1F)c1ccc2ccccc2c1
 : 4	5
- COc1cccc(C2c3c(oc4ccccc4c3=O)C(=O)N2Cc2ccccc2)c1 (stereo unspecified)
 : 13	11
- CCN1CCN(Cc2cc(C(=O)N(C)Cc3nc(C)cs3)no2)CC1
 : -10	2
- COC(=O)CC(C(=O)Nc1ccc(C)cc1Br)N1CCN(C)CC1 (stereo unspecified)
 : 5	1
- COc1ccccc1N1CCN(c2ccc(NC(=O)Nc3ccc(C)c(Cl)c3)cc2C(=O)NC(C)c2ccccc2)CC1 (stereo unspecified)
 : 9	-1
- COc1cccc(CN2CCC3(CC2)NC(=O)c2cc(Br)ccc2N3)c1OC
 : 5	0
- O=C(NC(c1ccc2c(c1)OCO2)c1ccccn1)C1CCN(CCOc2ccc(F)cc2)CC1 (stereo unspecified)
 : -9	-2
- Cc1cc(NC(=O)CN2CCN(S(=O)(=O)c3cc(C(F)(F)F)ccc3Cl)CC2)no1
 : 0	1
- NC(=O)COC(=O)CC(c1ccccc1)c1ccccc1
 : -2	-1
- COc1cc(CN2CCCC(C(=O)c3ccc(SC)cc3)C2)cc(Cl)c1O (stereo unspecified)
 : 1	5
- COC1CCCN(C(=O)C2(N(C)CCc3ccccc3)Cc3ccccc3C2)C1 (stereo unspecified)
 : -2	2
- CC(NC(=O)OCc1ccccc1)C(=O)N1CCOC(COc2ccc3c(c2)CCCC3)C1 (stereo unspecified)
 : 25	25
- NC(=O)c1cc[n+](CC2=C(C(=O)O)N3C(=O)C(NC(=O)C(c4ccccc4)S(=O)(=O)O)C3SC2)cc1 (stereo unspecified)
 : -15&-5	-5&0
- OCCn1c(CSc2nc3ccccc3n2CCO)nc2ccccc21
 : 11	5
- Brc1ccc(-c2ccnc3ncnn23)cc1
 : 1	3
- COC(=O)C(C)Oc1nc(C)c(Br)c(OC)n1 (stereo unspecified)
 : 2	10
- CCOC(=O)C1(C)CCCCN1C(=O)c1csnn1 (stereo unspecified)
 : -4	-1
- COCC(C)NC(=O)C(=O)Nc1ccccc1[N+](=O)[O-] (stereo unspecified)
 : 2	-4
- O=S(=O)(c1cccnc1)N1CC(c2ccncc2)C1
 : 7	24
- C=Cc1ccc(C(=O)N(C)CC2CCN(CCc3ccc(Cl)cc3)CC2)cc1
 : 1	8
- CCOC(=O)c1ccccc1N1C(=O)C2C3C=CC(C3)C2C1=O (stereo unspecified)
 : -10	1
- CCCCC(=O)Nc1c(C)nc2scc(C)n2c1=O
 : 6	13
- CC1CCN(c2ccc(NC(=O)C3CCN(C4CCS(=O)(=O)C4)CC3)cc2)CC1 (stereo unspecified)
 : 3	6
- NS(=O)(=O)c1ccc(Cl)c([N+](=O)[O-])c1
 : 6	6
- CCCCOc1ccc(S(=O)(=O)N2CCC(c3c[nH]c4ccc(F)cc34)CC2)cc1
 : 12	26
- O=C(CCc1ncc(-c2ccccc2)o1)N1CCN(S(=O)(=O)c2ccc(F)cc2)CC1
 : 6	2
- CCNC(=O)C(C)NC(=O)c1cc(-c2cc(C)oc2C)nc2onc(C)c12 (stereo unspecified)
 : 3	4
- O=C(C1CSCN1S(=O)(=O)c1cccnc1)N1CCSCC1 (stereo unspecified)
 : -6	-5
- Cc1ccc(NC(=O)CNC(=O)CN(Cc2ccc(F)cc2)C(=O)c2cccc([N+](=O)[O-])c2)cc1
 : 13	9
- CN(C)C(CNCC(O)c1ccc2c(c1)OCO2)c1ccsc1 (stereo unspecified)
 : 6	11
- c1cncc(-c2nc(N3CCCC3)c3c4c(sc3n2)CCC4)c1
 : 10	6
- N#Cc1c2n(c(=O)n(Cc3cc(=O)n4ccsc4n3)c1=O)CCC2
 : 8	4
- COc1ccccc1-n1ccc2c(cnc3nc(C)nn32)c1=O
 : 2	1
- c1cncc(CSc2nnc3ccc(-c4ccc5c(c4)OCO5)nn23)c1
 : -12	-13
- CCCC(=O)NC(C)c1nnc(SCc2cccc(C)c2)n1-c1ccc(C)cc1 (stereo unspecified)
 : 15	16
- Cc1ccc2c(c1)c(CNC(=O)c1cccc(C#CC(C)(C)O)c1)nn2C
 : -3	-3
- Cc1cccc(C)c1Nc1nnc(SCC(=O)N2C(C)CCCC2C)s1 (stereo unspecified)
 : -4	-3
- COCCNC(=O)CCN(Cc1ccccc1)c1nc(-c2ccc(OC)cc2)nc2ccccc12
 : 20	18

7 successive entries from above, quoted:
Below each SMILES: NPYLR7 agonist max-min	NPYLR7 agonist
- N#Cc1c2n(c(=O)n(Cc3cc(=O)n4ccsc4n3)c1=O)CCC2
 : 8	4
- COc1ccccc1-n1ccc2c(cnc3nc(C)nn32)c1=O
 : 2	1
- c1cncc(CSc2nnc3ccc(-c4ccc5c(c4)OCO5)nn23)c1
 : -12	-13
- CCCC(=O)NC(C)c1nnc(SCc2cccc(C)c2)n1-c1ccc(C)cc1 (stereo unspecified)
 : 15	16
- Cc1ccc2c(c1)c(CNC(=O)c1cccc(C#CC(C)(C)O)c1)nn2C
 : -3	-3
- Cc1cccc(C)c1Nc1nnc(SCC(=O)N2C(C)CCCC2C)s1 (stereo unspecified)
 : -4	-3
- COCCNC(=O)CCN(Cc1ccccc1)c1nc(-c2ccc(OC)cc2)nc2ccccc12
 : 20	18

New compounds follow:
Below each SMILES: NPYLR7 agonist max-min	NPYLR7 agonist
- CC(C)(C)n1nc(-c2ccc(Cl)cc2)c2c(N)ncnc21
 : -15	-10
- CC1(C(=O)NCC2CC2)CCN1C(=O)Cc1cc(F)ccc1F (stereo unspecified)
 : 4	7
- CC(=O)NCCc1cn(CCN2CCCCC2)c2ccc(C)cc12
 : -4	-2
- COc1ccc(-n2c(C)cn3c4c(=O)n(C)c(=O)n(C)c4nc23)cc1
 : -4	-5
- COC(=O)c1cc(C)sc1N1C(=O)CC(Sc2ccccc2C(=O)O)C1=O (stereo unspecified)
 : -20	-11
- Cn1c(-c2cccnc2)n[nH]c1=S
 : -9&-12	-3&-7
- Cc1cn2c3c(=O)n(CCN4CCCCC4)c(=O)n(C)c3nc2n1CCN1CCCCC1
 : 15	10
- COc1ccc(-n2c(SCc3ccc(C(=O)NC4CC4)cc3)nnc2-c2ccccc2Cl)cc1
 : 25	15
- COC(=O)C(C)N(C)CC(=O)N1CCSC1c1ccc(F)cc1 (stereo unspecified)
 : 16	4
- O=C(C(c1ccccc1)n1cnnn1)N1CCN(C2CCS(=O)(=O)C2)CC1 (stereo unspecified)
 : 8	3
- O=C(NCCNc1nc(-c2ccccc2Cl)nc2ccccc12)c1cccc(F)c1
 : 13	0
- O=c1c(Oc2ccccc2Br)c(C(F)(F)F)oc2cc(O)ccc12
 : 3	5
- COc1ccc2c(=O)c(-c3ccon3)coc2c1
 : 1	4
- CC1(C)OC2OC(C(=O)Nc3ccc4c(c3)OCCO4)C3OC(C)(C)OC3C2O1 (stereo unspecified)
 : 1	2
- Cc1ncc2c(c1CNC(=O)CSc1ncccn1)CCN(C(=O)c1ccc(CC(C)C)cc1)C2
 : -11	-8
- Fc1cccc(Cl)c1C1c2[nH]c3ccccc3c2CCN1Cc1ccn[nH]1 (stereo unspecified)
 : 5	17
- CCCNC(=O)C(C)NC(=O)Cc1coc2ccc3ccccc3c12 (stereo unspecified)
 : 13	-8
- O=C(c1ccc(F)cc1)N1CCN(c2nc(Cc3ccccc3)nc3onc(-c4cccc(Oc5ccccc5)c4)c23)CC1
 : 2	14
- COc1cc(N)c(Cc2nccc3cc(OC)c(OC)cc23)cc1OC
 : 5	6
- CC(C#N)CN(C)C(=O)/C=C/c1c(F)cccc1F (stereo unspecified)
 : 2	3
- COc1cccc(NC(=O)Cn2cc(-c3nnc(-c4ccccc4)o3)c3ccccc32)c1
 : 11	6
- CC(C)c1nc(CN(C)Cc2cc3ccccc3[nH]c2=O)cs1
 : -3	4
- O=C(Nc1nc2c(s1)CCCC2)c1cc(F)ccc1Br
 : -10	-10
- C=CCCC(=O)N1[C@@H](c2ccccc2)[C@@H](C(=O)NC)C[C@]12CCCCNC2=O
 : 19	7
- O=c1c2nnn(-c3ccc(Cl)cc3)c2ncn1Cc1cccc(C(F)(F)F)c1
 : -7	-6
- Cc1ccnc(SCc2cc(=O)c(OC(=O)c3ccco3)co2)n1
 : -7	-13
- CCCC(=O)N1N=C(c2ccc3c(c2)OCO3)CC1c1ccc2nccnc2c1 (stereo unspecified)
 : 7	2
- O=c1c(Cl)c(Cl)cnn1-c1cc(Nc2ccccc2)ncn1
 : 12	4
- COCC1(C(=O)N2Cc3cnc(C(C)(C)C)nc3C2)CCC1
 : -7	-4
- NC(=O)CC1CCN(Cc2cc(F)ccc2Br)CC1
 : 5	6
- COc1cccc2cc(-c3csc(Nc4ccccc4I)n3)c(=O)oc12
 : -9	-4
- CC(c1ccc(F)cc1)N(C)C(=O)c1ccc(S(=O)(=O)N2CCCCC2)cc1 (stereo unspecified)
 : -1	2
- CCCN1CCC(Cc2noc(C3CCOC(C)(C)C3)n2)CC1 (stereo unspecified)
 : 16	28
- O=C(NC(c1ccccc1)c1ccccn1)C(=O)c1ccc(C2CCCCC2)cc1 (stereo unspecified)
 : -21	-17
- COc1cc(-c2ccc(=O)n(Cc3ccccc3C)n2)cc(OC)c1OC
 : 2	6
- COc1ccc(NC2CCCN(c3ccc(C(C)=O)cn3)C2)cc1OC (stereo unspecified)
 : -9	-2
- Cc1ccc(-n2ncc3c(=O)n(NC(=O)/C=C/c4ccc([N+](=O)[O-])cc4)cnc32)cc1
 : 0	3
- CCOC(=O)c1cccc(NS(=O)(=O)c2ccc(O)c([N+](=O)[O-])c2)c1
 : -3	2
- CCN(CC)CCn1ncc(N2CCN(C)CC2)c(Cl)c1=O
 : 15	12
- O=C(CCN(CCc1ccccc1)c1nc(-c2ccccc2Cl)nc2cc(Cl)ccc12)Nc1ccccc1
 : 2	-6
- CC1CCN(c2cc(Cl)nc(SCc3ccc(C(=O)NCc4ccc5c(c4)OCO5)cc3)n2)CC1
 : 8	3
- O=C(c1cccs1)N1CCCC(OCc2cccc(C(F)(F)F)c2)C1 (stereo unspecified)
 : 0	-4
- COC(c1ccc2c(c1)CN(C(=O)c1scc3c1OCCO3)CCO2)C1CCCCC1 (stereo unspecified)
 : -1	-1
- Cn1ccnc1CN1C[C@H]2C[C@H](C1)[C@@H]1CCCC(=O)N1C2
 : 0	2
- CC(C)(C)c1nnc(NC(=O)NCC2CC(=O)N(C3CCCC3)C2)s1 (stereo unspecified)
 : -7	-3
- O=C1c2ccccc2C(=O)N1CCc1ccncc1
 : -23	-16
- COC(=O)c1ccc2c(c1)CN(C(=O)CSc1ncccn1)CC2
 : 6	4
- C[C@]12CCC(=O)C=C1CCC1C2C(=O)C[C@@]2(C)C1CC[C@]2(O)C(=O)CO (stereo partly specified)
 : -12	-8
- O=C(Nc1ccc2c(c1)OCO2)c1cnn2c(C(F)(F)F)cc(-c3ccc(F)cc3)nc12
 : -5	-4
- CC(C)Nc1ncc(CN2CCc3[nH]nc(-c4ccc5c(c4)OCO5)c3C2)cn1
 : 0	2
- Cc1ccc(Cn2cc(SC(=N)N)c3ccccc32)cc1
 : -7	-4
- Cc1cccc(C)c1N1C(C(=O)Nc2ccc(C(=O)O)cc2)=C(O)c2ccccc2S1(=O)=O
 : 8	2

Source: PubChem (Fisher Drug Discovery Resource Center)

A portion of the library; rates above refer to the full screens.
